# Screens (PubChem BioAssay)
# YopH PTP inh: YopH (Yersinia) phosphatase inhibition; fluorescence Ex485/Em525; 0.16% of 140,000 active; inhibition, %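 (about 10 µM by stock and volumes)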;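 active means inhibition of 50% or more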;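 further: controls were vehicle for no effect and minimum signal wells for full effect; inactives centre near -20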
# Mtb bLac sens: beta-lactam sensitization of Mtb H37Rv; 0.27% of 330,000 active; AID 434955; inhibition, % at 25 µM; M. tuberculosis H37Rv growth with meropenem, percent inhibition; hits of this screen are not shown here;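 active means about 74% or more and at least 40 points above the plate without the antibiotic, then above 30% in a dose series; inconclusive means first-round hits that could not be retested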;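 further: growth measured after seven days incubation then overnight dye step; 0% = bacteria only wells and 100% = bacteria with antibiotic; twin plates without the antibiotic show which effects depend on it; some results filed as inactive read as strong as hits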
# Mtb growth: M. tuberculosis H37Rv growth inhibitors, H37Rv strain (AID 1626). inhibition, % at 10 µM; hits with a dose series show IC50 in µM. 0.95% of 220,000 active. M. tuberculosis H37Rv growth inhibition; higher % means a stronger effect;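 active means confirmed in a dose series; inconclusive means inhibition above 80% but not taken into the dose series; inactive means below 80% or under 30% at every dose of the series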;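 further: bacteria incubated seven days before Alamar blue readout; 0% = bacteria only wells and 100% = bacteria with antibiotic wells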
# RecA intein inh: blocks M. tuberculosis RecA intein splicing | inhibition, %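 (about 9 µM by stock and volumes)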 | 0.75% of 290,000 active | P9WHJ3 | cell-free RecA intein splicing, fluorescence | AID 2221; in the data active means inhibition above about 30%; inconclusive means no clear call, values can overlap the other calls;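 further: 0% = vehicle wells and 100% = reference inhibitor control wells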
# Target sequence (P9WHJ3 whole entry, looked up): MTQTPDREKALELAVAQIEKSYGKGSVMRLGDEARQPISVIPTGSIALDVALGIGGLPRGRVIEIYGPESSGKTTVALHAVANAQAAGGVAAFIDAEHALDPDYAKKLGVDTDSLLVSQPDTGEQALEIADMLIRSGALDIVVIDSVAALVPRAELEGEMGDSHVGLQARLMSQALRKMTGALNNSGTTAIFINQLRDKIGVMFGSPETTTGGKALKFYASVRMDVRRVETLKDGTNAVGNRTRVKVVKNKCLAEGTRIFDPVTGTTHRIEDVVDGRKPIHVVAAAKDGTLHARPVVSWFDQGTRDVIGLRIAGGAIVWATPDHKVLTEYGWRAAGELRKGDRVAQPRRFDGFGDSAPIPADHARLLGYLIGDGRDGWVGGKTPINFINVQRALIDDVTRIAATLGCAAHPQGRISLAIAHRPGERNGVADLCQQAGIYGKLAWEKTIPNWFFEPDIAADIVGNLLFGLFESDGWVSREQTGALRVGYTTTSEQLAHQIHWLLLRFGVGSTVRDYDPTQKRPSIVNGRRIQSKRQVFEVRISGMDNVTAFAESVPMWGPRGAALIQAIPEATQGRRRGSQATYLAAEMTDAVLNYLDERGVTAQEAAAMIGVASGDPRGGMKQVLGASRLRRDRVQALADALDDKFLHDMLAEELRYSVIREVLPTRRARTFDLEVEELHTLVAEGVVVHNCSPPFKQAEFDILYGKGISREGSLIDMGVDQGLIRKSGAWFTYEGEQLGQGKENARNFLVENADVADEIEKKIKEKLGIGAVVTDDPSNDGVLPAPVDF
# Arbovirus inh: antivirals against arbovirus infection. 0.37% of 200,000 active. AID 1251. inhibition, % at 10 µM. arbovirus infection cell-based antiviral screen;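 active means inhibition from about 30%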;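 further: bluetongue infection of BSR cells; cell survival read as ATP light after 72 h; 0% = infected wells without compound and 100% = uninfected wells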
# Arbovirus inh repeat: recorded beside Arbovirus inh, whose call it bears; inhibition, %; measured here: 10K subset replicate screen; many hits read low in the repeat;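 first of two repeat runs on a subset; 0% = infected and 100% = uninfected wells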
# * hit, by the source's call; ? = inconclusive; / = not tested or not shown. The list is partial; the hit share may differ from the screen's.
SMILES,YopH PTP inh,Mtb bLac sens,Mtb growth,RecA intein inh,Arbovirus inh,others
CN(C1CCCCC1)S(=O)(=O)c1cc2c3c(c1)CCN3C(=O)CC2,/,-16,/,2.7,/,
Cc1cc(C)n(CCNCc2c(C(=O)N3C[C@@H](C)O[C@@H](C)C3)nc3ccc(Cl)cn23)n1,/,-1,-11%,4.3,8,
Cc1ccc(S(=O)(=O)N2CCC(C(=O)OC(C)C(=O)N3CCOCC3)CC2)cc1 (stereo not drawn),/,-3,/,3.8,/,
CCOc1ccccc1NC(=O)NC1CCCc2ccccc21 (stereo not drawn),/,-7,/,-2.3,/,
CC(C)=C1SC(N2CCN(c3ccc(Cl)cc3)CC2)=NC1=O,/,3,-3%,6.2,-2,
Cc1cc(O)c(C(C)C)cc1NC(=O)Cn1nc(C)c2ccccc2c1=O,5,1,-12%,-1.2,4,
CN(C)c1ccc(C(=S)N2CCCCCC2)cc1,-7,-12,-2%,-6.8,7,
N#Cc1cccc(S(=O)(=O)NCC(=O)OCC(=O)c2ccc[nH]2)c1,/,-4,3%,-0.4,10,
Cc1cccc(C)c1Nc1nnc(SCC(=O)NCc2ccco2)s1,-6,-5,-8%,1.7,6,
O=C(COc1ccc(Cl)cc1)NCc1nnc(SCC(=O)Nc2ccc3c(c2)OCCO3)o1,-17,-6,1%,-4.8,-3,
Cc1ccc(-n2c(CNc3ccc(F)cc3)nnc2SCC(=O)O)cc1,/,-2,-4%,-1.5,0,
CN(CC(=O)NC1(C)CCS(=O)(=O)C1)S(=O)(=O)c1ccc(Cl)cc1 (stereo not drawn),/,-12,/,-2.4,/,
CCCNC(=O)c1[nH]c(C)c(C(=O)OCC)c1C,-16,5,17%,0.4,0,
CC(C)=C(NC(=O)c1ccccc1)C(=O)Nc1cccc(C(=O)O)c1,/,0,-3%,-5.1,4,
Cc1cccc2cc(CN(CCN3CCOCC3)C(=O)NCc3ccccc3)c(=O)[nH]c12,-56,11,-11%,0.4,-1,
O=C(O)c1ccc2c(c1)C(=O)N(CCC1=CCCCC1)C2=O,-56,4,-7%,-1.1,14,
Cc1ccccc1NC(=O)Nc1cc(-c2ccccc2)nn1C,/,-7,6%,0.0,/,
O=C(CCn1nnnc1CN1CCOCC1)N1CCC(c2ccccc2Cl)C1 (stereo not drawn),/,-18,/,0.3,/,
CNC(=S)N/N=C/c1c(C)nn(-c2cccc(Cl)c2)c1Cl,0,2,-2%,-1.4,-14,
COc1ccc(C(c2c(O)nc[nH]c2=O)c2c(O)nc[nH]c2=O)cc1,/,-10,-3%,0.6,/,
O=C(N/N=C\c1cccc(F)c1)c1ccc(-c2ccccc2)cc1,/,6,/,-0.8,/,
CSc1ncccc1C(=O)OCC(=O)c1cc(C)n(CC2CCCO2)c1C (stereo not drawn),/,17,-5%,1.0,/,
Cn1c2c(c(=O)n(C)c1=O)C(c1cc3c(cc1Br)OCO3)CC(=O)N2 (stereo not drawn),-23,3,/,-9.3,2,Arbovirus inh repeat=-3
COc1ccc(S(=O)(=O)CCC(=O)NCCc2ccc(S(N)(=O)=O)cc2)cc1,-12,-7,1%,/,2,
COc1cccc(CN2C(=O)C(C)N(C(=O)c3c(F)cccc3F)c3ccccc32)c1 (stereo not drawn),/,3,/,9.3,/,
COc1ccc(Cl)cc1Nc1nc(-c2cccnc2)cs1,/,-1,/,0.7,/,
COc1ccc(NC(=O)c2ccccc2F)cc1Cl,6,-9,-5%,0.3,-4,
OCCCNc1ncnc2scc(-c3ccc(Cl)cc3)c12,/,0,/,-3.5,/,
O=C(COC(=O)CNC(=O)c1ccc(Br)cc1)Nc1nnc(-c2ccccc2)o1,/,0,/,0.6,/,
C[C@H](NC(=O)c1nc[nH]c1C(=O)N1CCN(C(=O)OC(C)(C)C)CC1)C(=O)OCc1ccccc1,/,-10,/,16,/,

# Among those listed so far, four contain fluorine:
SMILES,YopH PTP inh,Mtb bLac sens,Mtb growth,RecA intein inh,Arbovirus inh,others
Cc1ccc(-n2c(CNc3ccc(F)cc3)nnc2SCC(=O)O)cc1,/,-2,-4%,-1.5,0,
O=C(N/N=C\c1cccc(F)c1)c1ccc(-c2ccccc2)cc1,/,6,/,-0.8,/,
COc1cccc(CN2C(=O)C(C)N(C(=O)c3c(F)cccc3F)c3ccccc32)c1 (stereo not drawn),/,3,/,9.3,/,
COc1ccc(NC(=O)c2ccccc2F)cc1Cl,6,-9,-5%,0.3,-4,

# (list continues)
SMILES,YopH PTP inh,Mtb bLac sens,Mtb growth,RecA intein inh,Arbovirus inh,others
O=C(NCCN1CCOCC1)c1ccc2c(c1)N(Cc1cccc(F)c1)C(=O)c1ccccc1S2,/,-3,2%,1.5,-15,
COc1ccccc1C1CCN(Cc2ccc(Cl)c(Cl)c2)CC1,/,7,/,-1.2,/,
O=C(CSc1ccsc1[N+](=O)[O-])N1CCN(c2ccccn2)CC1,/,59,?,-0.4,4,
COC(=O)c1c(C)[nH]c(C=O)c1-c1ccccc1,/,-4,-11%,-0.6,/,
CCS(=O)(=O)N1CCC(C(=O)NCc2ccc3c(c2)OCO3)CC1,/,5,-6%,0.4,2,
O=C1CN(c2nc(-c3cccs3)nc3sc4c(c23)CCCC4)CCN1,/,11,6%,3.6,-6,
O=C(CCN1C(=O)c2ccccc2C1=O)N1CCN(Cc2ccccc2)CC1,-8,11,-8%,0.0,-6,
COc1ccc2[nH]c(C)c(CCN3C(=O)C4CC=CCC4C3=O)c2c1 (stereo not drawn),-8,-1,-15%,-1.8,1,Arbovirus inh repeat=4
C[C@H]1CCC/C=C/C2C[C@H](O)CC2[C@H](O)/C=C/C(=O)O1 (stereo partly drawn),-22,-6,0%,0.1,-26,
Cc1nnc(NC(=O)c2c(-c3ccccc3Cl)noc2C)s1,/,-4,-1%,5.3,7,
O=C(O)CCC1OC(=O)C(O)=C1c1ccccc1 (stereo not drawn),/,-4,-4%,-2.3,/,
O=C(Cc1ccccc1)Nc1cccc(NC(=O)c2cccs2)c1,/,-6,2%,1.9,-34,
COc1ccc(C(=O)NNC(=O)C2CCCO2)cc1 (stereo not drawn),/,1,-12%,0.3,/,
COc1ccc(-c2noc(CN3CCCC(OCc4ccccn4)C3)n2)cc1 (stereo not drawn),/,-4,-1%,-2.0,/,
CCOc1ccccc1C(=O)N(C)Cc1cc2cc(OC)ccc2[nH]c1=O,-33,-8,-3%,-1.3,-3,
CCOC(=O)C1CCN(Cc2ccc(Cl)nc2)CC1,/,3,/,-0.8,/,
COc1cc(/C=C2\CCc3c2nc2ccccc2c3C(=O)O)cc(OC)c1OC,/,6,2%,-54,/,
CSc1nsc(SC)c1C(=O)NC(=O)Nc1cccnc1,/,1,-7%,0.1,/,
COc1ccc(CN2C(=O)C(C)S/C2=N/N=C/c2ccco2)cc1 (stereo not drawn),/,3,8%,1.1,/,
Cc1cc(C)c(S(=O)(=O)N2CCCC2=O)c(C)c1,/,-1,-3%,-2.0,1,
COc1ccccc1OCC(=O)c1[nH]c(C)c(C(C)=O)c1C,-30,-4,-11%,2.5,4,
O=S(=O)(c1cccc(F)c1)N1CCN(C(=S)NCc2ccccc2)CC1,/,6,1%,-0.1,4,
C/C(O)=c1/c(=O)nc2cccc3c2=c1c1ccccc1c3=O,/,3,/,-1.8,/,
Cn1c(SCC(=O)NCC2CCCO2)nnc1-c1c[nH]c2ccccc12 (stereo not drawn),-54,4,8%,4.3,-2,
COc1ccc(-n2ncc3c2CC(C)(C)CC3NC(=O)CCC2=NNC(=O)CC2)cc1 (stereo not drawn),/,-7,/,6.1,/,
O=[N+]([O-])c1ccc(NCCCNS(=O)(=O)c2ccccc2)c(Cl)c1,-15,-4,8%,7.2,24,
CS(=O)(=O)c1ccc(-c2nnc(NC(=O)C3=COCCO3)o2)cc1,/,-4,/,-1.7,/,
CC1(C)CC(NC(=O)COc2ccc3c4c(c(=O)oc3c2)CCCC4)CC(C)(C)N1,/,-3,/,-2.5,/,
COc1ccc(CN2CCN(C(=O)c3cccc4ccccc34)CC2)c(OC)c1OC,/,0,/,3.0,/,
CCOC(=O)C/C(C)=N\Nc1ccc([N+](=O)[O-])cc1[N+](=O)[O-],/,-8,-3%,0.5,0,
CC(C(=O)O)N1CCCCC1 (stereo not drawn),/,4,4%,5.0,/,
Cc1ccc(OCC(=O)N/N=C/c2cn(C)c3ccccc23)cc1,/,/,8%,-0.1,/,
CC(C)Cn1c(SCC(=O)N2CCCc3ccccc32)nc2ccccc2c1=O,/,11,/,0.5,/,
Cc1noc(C)c1COC(=O)CN(C)S(=O)(=O)c1ccc(Cl)cc1,-21,-4,-9%,-0.9,2,
COc1ccc(N2CCN(c3nc4c(c(=O)n(C)c(=O)n4C)n3CCCc3ccccc3)CC2)cc1,/,-13,6%,0.6,/,
O=C(c1ccc(Cl)c(S(=O)(=O)N2CCOCC2)c1)N1CCCCCC1,/,-7,/,-1.0,/,
CC1S/C(=N/N=C/c2ccco2)N(Cc2ccc(F)cc2)C1=O (stereo not drawn),/,-2,15%,2.6,/,
CC(C)(C)c1ccc(-c2noc(-c3ccno3)n2)cc1,/,-3,-14%,3.1,/,
CNC(=S)NNC(=O)c1ccc(C(C)(C)C)cc1,/,59,0%,-0.3,/,
O=C(Nc1ccccc1)C1=C[C@@H](c2coc3ccccc3c2=O)C[C@@H](OCc2ccc(CO)cc2)O1,/,53,/,3.3,11,

# Reprinted at random: four entries already listed
SMILES,YopH PTP inh,Mtb bLac sens,Mtb growth,RecA intein inh,Arbovirus inh,others
Cc1ccc(OCC(=O)N/N=C/c2cn(C)c3ccccc23)cc1,/,/,8%,-0.1,/,
CC(C(=O)O)N1CCCCC1 (stereo not drawn),/,4,4%,5.0,/,
CC(C)Cn1c(SCC(=O)N2CCCc3ccccc32)nc2ccccc2c1=O,/,11,/,0.5,/,
CC(C)(C)c1ccc(-c2noc(-c3ccno3)n2)cc1,/,-3,-14%,3.1,/,

# (next part)
SMILES,YopH PTP inh,Mtb bLac sens,Mtb growth,RecA intein inh,Arbovirus inh,others
COc1cccc(C(=O)COC(=O)C(C)N2C(=O)c3ccccc3C2=O)c1 (stereo not drawn),-33,3,-6%,0.4,-5,
COCCN1C(=O)N[C@@H](c2cccc(C(F)(F)F)c2)[C@H](C(=O)OC)[C@H]1C,/,-14,-4%,1.3,/,
O=c1c2ccccc2nc2n1C(CSCc1ccccc1)CS2 (stereo not drawn),10,-13,8%,-0.4,4,
COc1ccccc1C1C(C#N)=C(N)Oc2c1c(-c1ccccc1)nn2-c1ccccc1 (stereo not drawn),-18,5,/,36*,3,
COc1cc(OC)c(OC)cc1CN(C)CCc1ccccn1,-37,1,-5%,-3.9,8,
CC(=O)c1ccc(Sc2ccccc2)cc1,-36,5,6%,4.2,3,
O=C(NCc1ccccc1F)c1ccc2c(c1)OCO2,-2,3,-4%,-2.9,-10,
CCN(C(=O)c1ccco1)C1C2CC3CC(C2)CC1C3 (stereo not drawn),/,4,/,1.0,/,
O=C(CSc1nnnn1C1CCCCC1)Nc1cccc(NC(=O)c2ccco2)c1,-18,-5,-1%,7.1,-17,
CC(C)Nc1nnc(SCC(=O)c2c[nH]c3ccccc23)s1,-38,-3,10%,1.8,0,
CC(=O)Nc1ccc(S(=O)(=O)c2ccc(N)cc2)cc1,-37,4,-4%,-1.8,19,
COc1ccc(/C=N/NC(=S)NCC2CCCO2)cc1 (stereo not drawn),/,-5,-11%,-0.9,/,
Cc1ccc(OC(=O)COc2ccccc2)c(-n2nc3ccccc3n2)c1,-13,95,-1%,13,5,
CCCCCCn1c(=O)c(C(=O)Nc2nnc(C)s2)c(O)c2ccccc21,/,100,4.7µM*,-2.3,15,
Cc1ccc(SCc2ccc(C(=O)NCc3cccnc3)cc2)cc1,-14,2,10%,4.6,-4,
CCC(C(=O)OC)n1cnc2c(cnn2-c2ccc(Cl)cc2)c1=O (stereo not drawn),-38,-10,3%,1.0,4,
O=C(COC(=O)/C=C/c1cccc([N+](=O)[O-])c1)NCc1ccco1,/,-4,-7%,-1.9,5,
O=C(O)CC/C(=N/NC(=O)CNC(=O)Cc1ccccc1)c1ccccc1,/,-8,13%,-1.2,/,
COc1ccc(-c2csc3ncn(CC(=O)N4CCOCC4)c(=O)c23)cc1,/,-6,-8%,-1.2,2,
COc1cccc(-c2cc3nc4c(c(N5CCC6(CC5)OCCO6)n3n2)CCCC4)c1,-9,21,22%,10,-16,
COCCCNC(=O)CN1C(=O)CSc2ccc(S(=O)(=O)N3CCOCC3)cc21,/,1,/,0.4,/,
Cc1ccc(OCCC(=O)OCC(=O)Nc2ccc(C)cc2Cl)cc1,/,-3,/,2.3,/,
CN1CCN(c2ccc([N+](=O)[O-])cc2/C=N/NC(=O)c2ccc(F)cc2)CC1,-26,/,/,0.8,-1,
N#Cc1c(Cl)nsc1NCCN1CCOCC1,/,-3,/,-2.0,/,
